Bioassay records as filed in PubChem.
NPYLR7 ag = activates Aedes aegypti NPYLR7 receptor; HEK293T NPYLR7/Galpha15, GCaMP6s calcium fluorescence; activation, % at 10 µM; 270,000 compounds, 0.15% hits; in the data active = activation above about 40%;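 note: 0% = vehicle and 100% = reference agonist at the receptor; some compounds past the cut are filed as inactive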
NPYLR7 ag max-min = further read-out of NPYLR7 ag, marked with its call; activation, %; measured here: Max-Min RFU normalised activation; some inactives read as strong as hits;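 span of the calcium signal over five minutes; 0% = vehicle and 100% = native peptide agonist; compound fluorescence can raise it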
* hit, by the source's call.

Results follow in this order: NPYLR7 ag	NPYLR7 ag max-min
1. Cc1ccccc1-n1ccnc1SC(C)C#N (stereo not given)
    -2	-6
2. Cc1ccccc1SCC(=O)NNC(=O)C(C)Nc1nc2ccccc2s1 (stereo not given)
    -2	5
3. CCC(C)N(Cc1ccsc1)C(=O)c1cccnc1NC (stereo not given)
    3	0
4. CCCNC(=O)Cn1nc2c(c1NC(=O)c1cccc3ccccc13)CSC2
    7	22
5. Cc1ccc(-c2nn(CC(=O)NCc3ccc(F)cc3)c(=O)c3nc(C)sc23)cc1
    11	7
6. CC1CCCN(Cc2nc3c(c(=O)n(C)c(=O)n3C)n2Cc2ccc(F)cc2)C1 (stereo not given)
    -17	-18
7. Cc1cc(C)nc(Nc2n[nH]c(-c3ccccc3Cl)n2)n1
    29	24
8. CCOC(=O)c1c(C)c(C(=O)C(C)N(C)S(=O)(=O)c2ccc(C(C)(C)C)cc2)c(C)n1C (stereo not given)
    -9	-2
9. CC1(CC(=O)O)C(=O)N=C2C=CC=CN21 (stereo not given)
    8	8
10. Cc1cc(C)c(C)c(S(=O)(=O)N2CCC(c3nc(-c4ccccc4Cl)no3)CC2)c1C
    26	17
11. O=S1(=O)N=C(CN(Cc2ccccc2)C(CO)C2CC2)Nc2ccccc21 (stereo not given)
    3	0
12. CCOc1nc(O)c(CC)c(=O)o1
    12	16
13. Cc1ccccc1C(C)NC(C)c1nc2scc(-c3ccco3)c2c(=O)[nH]1 (stereo not given)
    4	2
14. Nc1ccc2nc(-c3cc(Cl)c(N)c(Cl)c3)[nH]c2c1
    -4	-5
15. Cc1cc(N2CCN(CC(=O)NCC(=O)Nc3ccc(F)cc3)CC2)nc(C(C)C)n1
    9	4
16. CCOC(=O)C1(Cc2ccccc2)CCNCC1
    6	5
17. CN(C)CCCOc1ccc(-c2nnc3ccc(C#Cc4cccc(F)c4)cn23)cc1
    15	12
18. CCC(=O)NCc1ccccc1-c1cnc2ccccc2c1
    4	-2
19. CCCNC(=O)C1(C)CCN(CCOc2cccc(C(F)(F)F)c2)C1 (stereo not given)
    2	1
20. Cc1cccn2c(=O)cc(CSc3nnc(Cc4cccs4)n3C3CC3)nc12
    19	11
21. O=C(Cn1nc2c(SC3CCCCC3)nccn2c1=O)Nc1ccccc1Br
    -5	-6
22. Cc1nc2n(CC(=O)c3cccs3)c3ccccc3n2n1
    14	2
23. Oc1cc(O)cc(/C=C/c2ccc(O)c(O)c2)c1
    4	-49
24. Fc1ccc(Cc2nc(CSCCc3ccccc3)cs2)c(Cl)c1
    1	-2
25. Cc1ccc(NCCCc2ccccc2)c(N)c1
    -2	-8
26. OCCOCCNc1ncnc2c1c(-c1ccccc1)cn2-c1ccccc1
    -5	-6
27. CC1(C)CC2=NN(c3ccccc3)P(=S)(N3CCc4ccccc4C3)C2=C(N2CCCCC2)C1 (stereo not given)
    7	6
28. CC(C)CCn1c(SCc2ccc(Cl)cc2)nc2c1c(=O)[nH]c(=O)n2C
    -1	36
29. CC(C)N(C(=O)Cn1nc(-c2cccs2)c2sc(N3CCCC3)nc2c1=O)c1ccccc1
    1	-4
30. CNC(=O)CC(C)N(C)Cc1cccc2nonc12 (stereo not given)
    5	3
31. Clc1cccc(-c2noc(-c3ccc(NCC4COCCO4)nc3)n2)c1 (stereo not given)
    12	6
32. O=c1[nH]c(CN2CCOCC2)nc2c1C1(CCCCC1)Cc1ccccc1-2
    8	7
33. CC1CC(C)CN(C(=O)NCc2ccnc(-n3cccn3)c2)C1 (stereo not given)
    -4	-4
34. Cc1ncc(CC(=O)NC2CC(=O)N(CCc3ccc(F)cc3)C2)c(=O)[nH]1 (stereo not given)
    9	4
35. O=C1NCC(=O)N2CCN(Cc3cnn(-c4ccc(Cl)cc4)c3)CC12 (stereo not given)
    7	4
36. Cc1ccc(-c2cn[nH]c2C2CCCN(C(=O)C(C)(C)N)C2)cc1 (stereo not given)
    2	1
37. O=C(c1ccc([N+](=O)[O-])s1)N(CCCN1CCOCC1)c1nc2ccc(F)cc2s1
    -8	-12
38. COc1ccc(S(=O)(=O)NCC2CCCN(C(=O)c3snnc3C)C2)cc1 (stereo not given)
    -1	-3
39. CC(C)(C)c1ccc(NC(=O)c2ncncc2Cl)cc1
    3	0
40. NC(=O)CSc1nc2c([nH]c3ccccc32)c(=O)n1-c1ccc(F)cc1
    1	43
41. Cc1cc(C(=O)C(C)Sc2nnnn2C2CC2)c(C)n1Cc1ccco1 (stereo not given)
    4	1
42. Cc1ccc(NC(=O)c2cc(-c3ccc(Cl)cc3)n(-c3ccccc3F)c2C)cc1C
    5	22
43. Cc1cc(NC(=O)c2ccc(OC(C)C)cc2)n(-c2nc3c(c(=O)[nH]2)CCC3)n1
    5	0
44. O=C(CCCn1cncn1)N1CCCC(CO)(Cc2cccc(Cl)c2)C1 (stereo not given)
    2	1
45. Cc1nc(C)c(C(=O)OC(C)C(=O)Nc2ccc(C(N)=O)cc2)s1 (stereo not given)
    2	3
46. CCOC(=O)C1CCN(C(=O)CC2CSc3nc4c(c(=O)n32)CCC4)CC1 (stereo not given)
    -3	-4
47. c1ccc(CCCc2nnnn2CC2CCOC2)cc1 (stereo not given)
    9	6
48. COc1ccc(C(=O)NCc2n[nH]c(=S)n2-c2cccc(C(F)(F)F)c2)cc1OC
    -3	-5
49. CC(C)(O)C#Cc1ccc(CN2CCCC(CCC(=O)N3CCOCC3)C2)s1 (stereo not given)
    19	10
50. CNc1cccc(-c2ccc(NC(=O)OC)cc2)n1
    0	-1
51. CC(C)c1ccc(-c2noc(CSc3nnc(C4CC4)n3C3CC3)n2)cc1
    -2	-1
52. Cc1ccc(OCCN(C)Cc2ccccc2C(=O)O)c(C)c1
    -1	-1
53. O=C(Nc1ccc(F)cc1)c1cccn(OCc2ccccc2F)c1=O
    3	1
54. CCN1C(=S)NC(c2ccc(NC(=O)Nc3ccc([N+](=O)[O-])cc3)cc2)C(C(=O)OCC(C)C)=C1C (stereo not given)
    2	11
55. COc1ccccc1-n1cc(C(=O)N2CCCn3nc(C)cc3C2)cn1
    0	-2
56. COc1ccc(-c2ccccc2NC(=O)C2CCCN2C(=O)C2CCCC2)cc1 (stereo not given)
    0	-2
57. C[C@@H]1OC(O)[C@H](O)[C@H](O)[C@H]1O (stereo not given in full)
    17	14
58. COC(=O)[C@@H](C)NC(=O)c1sccc1C#N
    5	4
59. Cc1ccc(Nc2nc(N3CCN(CCO)CC3)nc3nccnc23)c(C)c1
    3	3
60. CC(C)CN(CC(C)C)C(=O)C1CC(=O)N(N(C)c2ccccc2)C1 (stereo not given)
    -14	-24

Continued:
Results follow in this order: NPYLR7 ag	NPYLR7 ag max-min
61. Cc1ccc(-c2nc3cc(C)ccn3c2NC(=O)C(C)(C)C)cc1
    -4	3
62. CCC1C(=O)N(C)CCc2ccccc21 (stereo not given)
    -6	-8
63. COc1ccc(C2CC(C(F)(F)F)n3ncc(C(=O)Nc4ccc(F)cc4F)c3N2)cc1OC (stereo not given)
    -2	-9
64. CNC(=O)C1CCN(C(=O)c2cc(-c3ccco3)n(-c3ccc(Cl)cc3)n2)CC1
    10	5
65. CC(NC(=O)c1cccc(CN2C(=O)CSC2=O)c1)C(C)(C)C (stereo not given)
    -1	-2
66. Cc1cccc(S(=O)(=O)NCCc2csc3nc(-c4cccs4)nn23)c1
    -1	-3
67. O=C(c1ccc([N+](=O)[O-])cc1)N1CCN(c2ccc(Nc3ccccc3)nn2)CC1
    0	-2
68. Cc1cc(N2CC[C@@H](O)C2)c2cc(OC(F)F)ccc2n1
    -7	-6
69. CNC(=O)c1sc(-c2cc3ccccc3[nH]c2=O)nc1C
    2	-1
70. Cc1ccc(CNC(=O)Cn2c(CO)cnc2SCc2ccc(C(F)(F)F)cc2)cc1
    7	2
71. O=C(c1ccccc1)N(Cc1cccnc1)c1nc2c(F)cc(F)cc2s1
    -11	-11
72. C=C(C)Cn1c(SCC(=O)N/N=C\c2ccc(OC)c(OC)c2)nnc1-c1ccc(Br)cc1
    -4	6
73. C=C(C)COc1cccc(C(=O)N(C)C(C)c2c(C)n[nH]c2C)c1 (stereo not given)
    0	-5
74. O=S(=O)(NCCNc1nc(-c2ccc(Cl)cc2)nc2ccccc12)c1ccc(Cl)cc1
    26	29
75. CC(C)N=c1scc(-c2ccco2)n1N=Cc1cc2c(cc1[N+](=O)[O-])OCO2
    2	-7
76. CCSc1nc2c(c(=O)n1-c1ccccc1OC)SCC2
    0	0
77. C=C(C)CSc1nnc(NC(=O)CCCC)s1
    -2	3
78. O=C(c1cccc(C(F)(F)F)c1)N1CCCC(CO)(CCc2ccccc2)C1 (stereo not given)
    4	5
79. Cc1ccc(C2=NN(c3ccc([N+](=O)[O-])cc3)C(c3ccc(F)cc3)C2)cc1 (stereo not given)
    -4	-8
80. C=CCn1cc(CN(CC)Cc2noc(C)n2)c(C)n1
    3	-1

Rewritten screen by screen: 26 of the compounds above.
[55] COc1ccccc1-n1cc(C(=O)N2CCCn3nc(C)cc3C2)cn1
[56] COc1ccc(-c2ccccc2NC(=O)C2CCCN2C(=O)C2CCCC2)cc1 (stereo not given)
[57] C[C@@H]1OC(O)[C@H](O)[C@H](O)[C@H]1O (stereo not given in full)
[58] COC(=O)[C@@H](C)NC(=O)c1sccc1C#N
[59] Cc1ccc(Nc2nc(N3CCN(CCO)CC3)nc3nccnc23)c(C)c1
[60] CC(C)CN(CC(C)C)C(=O)C1CC(=O)N(N(C)c2ccccc2)C1 (stereo not given)
[61] Cc1ccc(-c2nc3cc(C)ccn3c2NC(=O)C(C)(C)C)cc1
[62] CCC1C(=O)N(C)CCc2ccccc21 (stereo not given)
compound no.	55	56	57	58	59	60	61	62
NPYLR7 ag	0	0	17	5	3	-14	-4	-6
NPYLR7 ag max-min	-2	-2	14	4	3	-24	3	-8

[63] COc1ccc(C2CC(C(F)(F)F)n3ncc(C(=O)Nc4ccc(F)cc4F)c3N2)cc1OC (stereo not given)
[64] CNC(=O)C1CCN(C(=O)c2cc(-c3ccco3)n(-c3ccc(Cl)cc3)n2)CC1
[65] CC(NC(=O)c1cccc(CN2C(=O)CSC2=O)c1)C(C)(C)C (stereo not given)
[66] Cc1cccc(S(=O)(=O)NCCc2csc3nc(-c4cccs4)nn23)c1
[67] O=C(c1ccc([N+](=O)[O-])cc1)N1CCN(c2ccc(Nc3ccccc3)nn2)CC1
[68] Cc1cc(N2CC[C@@H](O)C2)c2cc(OC(F)F)ccc2n1
[69] CNC(=O)c1sc(-c2cc3ccccc3[nH]c2=O)nc1C
[70] Cc1ccc(CNC(=O)Cn2c(CO)cnc2SCc2ccc(C(F)(F)F)cc2)cc1
compound no.	63	64	65	66	67	68	69	70
NPYLR7 ag	-2	10	-1	-1	0	-7	2	7
NPYLR7 ag max-min	-9	5	-2	-3	-2	-6	-1	2

[71] O=C(c1ccccc1)N(Cc1cccnc1)c1nc2c(F)cc(F)cc2s1
[72] C=C(C)Cn1c(SCC(=O)N/N=C\c2ccc(OC)c(OC)c2)nnc1-c1ccc(Br)cc1
[73] C=C(C)COc1cccc(C(=O)N(C)C(C)c2c(C)n[nH]c2C)c1 (stereo not given)
[74] O=S(=O)(NCCNc1nc(-c2ccc(Cl)cc2)nc2ccccc12)c1ccc(Cl)cc1
[75] CC(C)N=c1scc(-c2ccco2)n1N=Cc1cc2c(cc1[N+](=O)[O-])OCO2
[76] CCSc1nc2c(c(=O)n1-c1ccccc1OC)SCC2
[77] C=C(C)CSc1nnc(NC(=O)CCCC)s1
[78] O=C(c1cccc(C(F)(F)F)c1)N1CCCC(CO)(CCc2ccccc2)C1 (stereo not given)
compound no.	71	72	73	74	75	76	77	78
NPYLR7 ag	-11	-4	0	26	2	0	-2	4
NPYLR7 ag max-min	-11	6	-5	29	-7	0	3	5

[79] Cc1ccc(C2=NN(c3ccc([N+](=O)[O-])cc3)C(c3ccc(F)cc3)C2)cc1 (stereo not given)
[80] C=CCn1cc(CN(CC)Cc2noc(C)n2)c(C)n1
compound no.	79	80
NPYLR7 ag	-4	3
NPYLR7 ag max-min	-8	-1

The list goes on.
Results follow in this order: NPYLR7 ag	NPYLR7 ag max-min
81. COc1ccc(CN(C(=O)OC(C)(C)C)C2CCC(C(=O)N3CCOC(COCc4ccc(F)cc4Cl)C3)CC2)cc1C (stereo not given)
    5	2
82. Cc1cc(C)c(OS(=O)(=O)c2ccc(F)cc2F)c(C)c1
    5	2
83. CC(=O)NC(CC(=O)Nc1nc(-c2ccccc2)cs1)c1cccs1 (stereo not given)
    -6	-7
84. CCOc1ccc(NC(=O)CC(=O)N2CCOC3(CNCCOC3)C2)cc1 (stereo not given)
    -15	-17
85. O=C(NCc1ccc(-n2cnc3ccccc32)cc1)N1CCCC(O)C1 (stereo not given)
    -6	-7
86. O=C1NC(=S)NC1=Cc1ccc(O)cc1
    2	1
87. Cc1ccc(CNC(=O)CCc2csc(NC(=O)c3ccc[nH]c3=O)n2)cc1
    -8	-16
88. CCN(CC)c1ccc(-n2nc3cc(C)c(NC(=O)c4cccnc4)cc3n2)cc1
    15	15

This is a subset, so the mix of outcomes need not match the whole.
